From PubChem
VDR inh: Inhibitors of the vitamin D receptor (VDR): qHTS; VDR-SRC2-3 peptide fluorescence polarization, 2 h; Vitamin D3 receptor (Homo sapiens), P11473; Potency, µM, inactives show max response, negative = inhibition, actives largely listed as inhibitors; 0.93% of 400,000 active; AID 504847, 2011; active = well fitted inhibition curve with a large enough effect; inconclusive = small, poorly fitted or top-dose-only effect, or another doubt; inactive = no such curve, though single readings can be large or run the other way; note: series mostly up to about 120 µM
Target sequence (P11473 whole entry, looked up): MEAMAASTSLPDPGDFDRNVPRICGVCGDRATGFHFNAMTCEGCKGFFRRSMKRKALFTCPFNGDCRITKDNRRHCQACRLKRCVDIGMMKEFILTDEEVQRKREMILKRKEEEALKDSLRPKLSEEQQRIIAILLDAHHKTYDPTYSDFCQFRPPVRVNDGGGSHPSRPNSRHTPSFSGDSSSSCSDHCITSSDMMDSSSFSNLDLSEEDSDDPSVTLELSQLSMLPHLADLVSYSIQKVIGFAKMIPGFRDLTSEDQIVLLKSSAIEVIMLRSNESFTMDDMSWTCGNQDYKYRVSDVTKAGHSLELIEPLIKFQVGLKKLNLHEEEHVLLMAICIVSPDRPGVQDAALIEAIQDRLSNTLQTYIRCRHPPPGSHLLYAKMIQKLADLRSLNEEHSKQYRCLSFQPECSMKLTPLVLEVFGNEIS
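The screen uses fluorescence polarization to detect compounds that interfere with recruitment of the SRC2-3 coactivator peptide to VDR; plates are read after 2 h at room temperature.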
* = called active by the depositor; ? = inconclusive; [ ] = dose if it differs, or a comment. % is set by controls: 0 for no effect and ±100 for the full control effect; potency is the fitted concentration of half-maximal effect. Not all compounds are listed; the hit share may differ from the screen's.

VDR inh	compound
-8.4%	CC1(C)Cc2ccccc2C(=NC(Cc2c[nH]c3ccccc23)C(=O)O)N1 (stereo not drawn)
-3.0%	CCc1ccc(-n2nc(CO)c(C(=O)NCCc3ccccc3)n2)cc1
-0.1%	NS(=O)(=O)c1ccc(N/N=C/C=C/c2ccccc2[N+](=O)[O-])cc1
-5.1%	CC(=O)Cc1nsc(Nc2ccc(Cl)cc2)n1
5.2%	CC(C)CCNC(=O)c1onc(CSc2nc3ccccc3[nH]2)c1C(=O)NCCC(C)C
8.6%	O=C(Nc1ccc2c(c1)OCO2)c1ccc(NC2CC2)c([N+](=O)[O-])c1
?	COC(=O)CCC(=O)OC1(C)C(=O)C2=CN(Cc3ccc4c(c3)OCO4)C(c3ccc(OC)cc3)=CC2=C(Br)C1=O (stereo not drawn)
-0.8%	CC(=O)N(C)c1ccc(NC(=O)CCN2C(=O)c3ccccc3C2=O)cc1
-5.7%	CCOC(=O)N1CCC(NC(=O)c2cc3c(-c4ccc(OC)c(OC)c4)nn(C)c3s2)CC1
-5.3%	C=CCNC(=S)NNC(=O)COc1ccc2cc(Br)ccc2c1
1.5%	Cc1c(C(=O)OCC2CCCCC2)[nH]c2c1C(=O)CC(c1ccc(Cl)cc1)C2 (stereo not drawn)
-2.7%	Cc1cccc(NC(=O)C(C)Sc2nnc(-c3cccnc3)o2)c1 (stereo not drawn)
13.0%	CC1CC(=O)C=C(O)C1C(=O)OC(C)(C)C (stereo not drawn)
-18.7%	O=C(c1ccc(NC2=NC3CS(=O)(=O)CC3S2)cc1)N1CCN(c2ccc([N+](=O)[O-])cc2)CC1 (stereo not drawn)
-1.8%	COC(=O)C1=C(C)N=C2SC(C#N)=C(N)N2C1c1cccc(OC)c1 (stereo not drawn)
-0.2%	Cc1ccc(C(C[N+](=O)[O-])c2c(C)cc3ccccn23)cc1 (stereo not drawn)
-7.8%	CC(=O)OC1C=CCC2C(=O)c3cccc(O)c3C(O)C12 (stereo not drawn)
-8.2%	CC(C(O)C12CC3CC(CC(C3)C1)C2)N1CCCCC1 (stereo not drawn)
-12.5%	Nn1c(SCC(=O)Nc2nnc(-c3ccccc3)o2)nnc1C1CC1
-3.0%	O=C(Nc1ccc(S(=O)(=O)NC2=NCCCCC2)cc1)c1ccco1
-0.2%	CCOC(=O)c1sc(NC(=O)CSc2nc3c(cc2C#N)CCCCCC3)c(C#N)c1C
?	O=c1cc(O)n(C2CCCCCC2)c(=O)[nH]1
5.0%	O=C(O)COn1c(-c2ccc(Cl)cc2)nc2ccc(Cl)cc21
-21.4%	O=C(C1=C[C@H](c2ccc(Br)cc2)C[C@H](OCc2ccc(CO)cc2)O1)N1CCOCC1
-13.4%	COCCC(=O)N(Cc1ccc2c(c1)OCO2)C(C(=O)NC1CCCCC1)c1ccncc1 (stereo not drawn)
1.6%	COc1ccccc1N1CCN(C2C(=O)c3ccccc3N2C(C)=O)CC1 (stereo not drawn)
-13.9%	CCn1ncc(C2=NOC(C(=O)NCc3ccc(Cl)cc3)C2)c1C (stereo not drawn)
14.0%	CC(NC(=O)COc1cc(=O)n(C)c2ccccc12)c1ccc2c(c1)OCCO2 (stereo not drawn)
-13.6%	Cc1ccc(S(=O)(=O)N2CCCC(C)C2)cc1 (stereo not drawn)
-2.5%	CN(C)Cc1ccccc1COc1ccccc1
-14.3%	CC(C)(CC(=O)O)CC(=O)NCc1c(Cl)cccc1Sc1ccc(Cl)cc1
-15.2%	COc1cccc(OCCn2c(C)c(/C=N/n3cnnc3)c3ccccc32)c1
-5.0%	CCCC(=O)Nc1ccc2nc(SCC(=O)N3CCCC3)sc2c1
0.2%	O=C(NCCc1cccnc1)c1cc(COc2ccc(F)cc2F)on1
12.2%	COc1cc(C(=O)O/N=C(\N)c2ccccn2)cc(OC)c1OC
7.8%	O=c1cc(NCc2ccccc2)nc2n1CCCS2
-17.0%	CCCC(=O)N1CCN(c2nc3c(OC)ccc(Cl)c3s2)CC1
3.5%	Cc1cnc(CNC(=O)C2CCC(=O)N(CCc3cccc(F)c3)C2)[nH]1 (stereo not drawn)
-18.4%	O=[N+]([O-])c1cc(S(=O)(=O)N2CCCCCC2)ccc1F
-4.4%	O=C(Nc1ccnn1C1CCN(C2CCCC2)CC1)c1ccccc1Cl
9.6%	CC(C)(C)OC(=O)N1CCC(c2c(C(=O)N3CCN(c4ccccn4)CC3)cnn2-c2cccc(F)c2)CC1
-3.1%	CC(C)C(=O)NCC(c1ccc2c(c1)OCO2)N1CCN(c2ccccc2)CC1 (stereo not drawn)
8.9%	Cc1ccc(-n2nc(C)c3c(C(=O)O)cc(C)nc32)cc1
-10.7%	Fc1ccc(-c2ccnc3nc(N4CCOCC4)nn23)cc1
-15.5%	O=C(CCN=C1NS(=O)(=O)c2ccccc21)OCc1nnc(-c2ccc([N+](=O)[O-])cc2)o1
-5.0%	Cc1cccc(NC(=O)CN(C)S(=O)(=O)c2ccc3c(c2)c(=O)n(C)c(=O)n3C)c1
-3.4%	Cc1ccc(C)c(S(=O)(=O)NCc2ccc(C(=O)NCc3ccco3)cc2)c1
1.1%	O=C(NC1CCCC1)c1c[nH]c2ccc(F)cc2c1=O
?	CNc1nc(Cl)c(SC)c(NCc2cccc(OC)c2)n1
8.2%	CCN(C(=O)COC(=O)CNC(=O)c1ccc(Cl)cc1Cl)c1c(N)n(Cc2ccccc2)c(=O)[nH]c1=O
10.1%	O=C(COc1ccc(Cl)cc1Br)NC(=O)NC1CCCC1
2.9%	NC(=S)Nc1c(Cl)cccc1Cl
19.3%	C=CCN1C(=NC(=O)CCC)SC2CS(=O)(=O)CC21 (stereo not drawn)
-12.9%	COc1cccc(C2C(C(=O)c3cc4cccc(OC)c4o3)=C(O)C(=O)N2c2cc(C)on2)c1OC (stereo not drawn)
7.9%	CC(C)[C@H](NC(=O)[C@@H]1Cc2ccccc2CN1)C(=O)Nc1ccc2c(c1)OCCO2
-3.2%	Fc1ccc(-c2cc(C(F)(F)F)nc(-n3cc(Cl)cn3)n2)cc1
-3.5%	O=C(c1cnc2n(c1=O)CCS2)N1CCCc2ccccc21
10.3%	Cc1nn(Cc2ccccc2Cl)c(C)c1NC(=O)/C=C/c1cnn(C)c1
?	CC(=O)OC1CC2C(C)(C)C(O)CC[C@@]2(C)C2CC[C@@]3(C)C(c4ccoc4)OC(=O)C4O[C@@]43[C@]12C (stereo partly drawn)
-8.1%	CC1CC(C)(C)NC(=S)N1CCCC(=O)N1CCN(c2ccc(F)cc2)CC1 (stereo not drawn)

Carrying on:
VDR inh	compound
-11.7%	COc1cc(NS(=O)(=O)c2ccc(NC(=S)NC(=O)c3ccc(F)c(F)c3)cc2)nc(OC)n1
-6.1%	O=C(CCNC(=O)c1ccco1)Nc1nc(-c2ccccc2)cs1
-18.4%	CN(C)C(CNC(=O)CSc1nc2sc3c(c2c(=O)n1C)CCC3)c1ccccc1 (stereo not drawn)
22.7%	CC(C)OCCCNS(=O)(=O)c1ccc2c(c1)OCCO2
-3.8%	COc1cc(Cl)cc(/C=C/c2ccc3cccc(O)c3n2)c1OC
-5.3%	Cc1cccc(N(C)C(=O)c2coc(=O)c3ccccc23)c1
-3.0%	Nc1cc(=O)[nH]c(SCCSc2ccccc2F)n1
-10.2%	CCOC(=O)c1cnc2cc(C)ccn2c1=O
1.0%	CC1=C(C(=O)Nc2cc(C)ccc2C)C2(CCCCCC2)OC1=O
-16.0%	COc1ccc(CN2C(=O)C(NC(=O)c3ccccc3C)(C(F)(F)F)N=C2c2ccccc2)cc1 (stereo not drawn)
20µM*	Cc1cccc(NC2=C(C#N)C(=O)NC3(CCCC3)S2)c1
-5.3%	O=C(Nc1cccc(-c2nc3cccnc3s2)c1)C1c2ccccc2Oc2ccccc21
11.9%	CC1(C)CC2(CCO1)OC(=O)CC2C(=O)Nc1c(Cl)cccc1Cl (stereo not drawn)
-3.1%	COc1ccc(C(=O)NNC(=O)CSc2nc3c([nH]2)c(=O)n(C)c(=O)n3C)cc1
11.9%	CCOC(=O)NCC(C#CCN(CC)CC)N(CC)CC (stereo not drawn)
3.6%	Cc1ccc(Nc2nc(N)nc(CSc3nncn3C)n2)cc1
-3.1%	Cc1ccccc1N(CC(=O)Nc1ccc(F)cc1)S(C)(=O)=O
14.7%	CCOc1cccc(OCCOCCNC(C)(C)C)c1
-10.5%	COCCNC(=O)c1onc(CSc2ccccc2)c1C(=O)O
14.4%	CC(C)(C)c1nn(-c2ccccc2)c2[nH]c(=O)c(CNCc3ccco3)cc12
-0.9%	CC1COC(=O)O1 (stereo not drawn)
-5.1%	C=C(C)C(=O)Nc1cccc(C2=NOC3(C2)C[C@@H](C(N)=O)N(C(=O)/C(C)=C/C)C3)c1 (stereo partly drawn)
2.0%	CCCCn1c(N)c(N(CC(C)C)C(=O)c2cccc(S(=O)(=O)N(C)c3ccc(C)cc3)c2)c(=O)[nH]c1=O
17.0%	CCN(C[C@H]1N[C@@](CC)(C(=O)OC)[C@H]2C(=O)N(C)C(=O)[C@@H]12)C(=O)NC(C)C
-27.5%	FC(F)(F)c1cccc(Nc2cc(-c3ccccc3)nc3ncnn23)c1
-16.9%	CC(=O)Nc1ccc(NC(=O)CSc2nnc(C3CC3)n2-c2ccccc2)cc1
-26.9%	CCCCOC(=O)C1=C(C)NC(=O)NC1c1ccc([N+](=O)[O-])s1 (stereo not drawn)
7.9%	CC1CCCCN1C(=O)CSc1n[nH]c(-c2ccccc2Cl)n1 (stereo not drawn)
8.0%	COc1cc(C(=O)n2nc(-c3ccco3)nc2NCc2ccc(Cl)cc2)cc(OC)c1OC
-1.0%	Cc1cc(C)cc(N2CCCC2=O)c1
34.8%[activator]	CNC(=O)NC(=O)CSc1nc2sccc2c(=O)n1-c1ccccc1
?	Cn1c(=O)c(C(=O)CN2CCc3ccccc32)c(N)n(Cc2ccccc2)c1=O
-23.6%	COc1cccc(CN2CCN(Cc3cccn3-c3cccnc3)CC2CCO)c1 (stereo not drawn)
-12.6%	CN(Cc1ccccc1)c1nc2c(c(=O)[nH]c(=O)n2C)n1Cc1ccccc1Cl
3.8%	COC(CNC(=O)C1CCN(C(=O)c2cc3oc(C)cc3n2Cc2c(F)cccc2Cl)CC1)OC
7.6%	COc1ccc(S(=O)(=O)N2CCc3ccccc32)cc1C(=O)Nc1ccc(C(N)=O)cc1
-20.8%	COC(=O)N[C@@H]1C[C@H]2[C@@H]3CC[C@H]4C[C@@H](OC)CC[C@]4(C)[C@H]3CC[C@]12C
-7.9%	Cc1ncoc1C(=O)N1CCCC(C(=O)c2ccc(C(F)(F)F)cc2)C1 (stereo not drawn)
7.5%	CC(C)n1c(=O)[nH]c2ccccc21
3.1%	CC1CCCCC1NC(=O)C1CCC(CNS(=O)(=O)c2ccc(F)cc2)CC1 (stereo not drawn)
-24.4%	C=CC(=O)N1c2ccccc2Sc2ccc(NC(=O)OCC)cc21
-5.0%	CCn1c(SCC(=O)N2CCCCCC2)nc2c([nH]c3ccccc32)c1=O
-4.8%	Cc1ccc(-n2ncc3c2CC(C)(C)CC3NC(=O)CCCN2CCCC2=O)cc1 (stereo not drawn)
-10.1%	COC(=O)CC1COc2ccccc2N1C(=O)c1cccc(C(F)(F)F)c1 (stereo not drawn)
8.9%	COc1ccc(OC)c(NS(=O)(=O)c2ccc(NC(C)=O)cc2)c1
-16.6%	CCC(=O)Nc1cccc(NC(=S)NC(=O)c2ccccc2Cl)c1
-13.2%	CCn1c2ccc(C)cc2c2nnc(SCCN3CCOCC3)nc21
2.6%	O=c1[nH]oc(O)c1-c1ncc(C(F)(F)F)cc1Cl

Of the compounds above, three have a cyano group:
VDR inh	compound
-1.8%	COC(=O)C1=C(C)N=C2SC(C#N)=C(N)N2C1c1cccc(OC)c1 (stereo not drawn)
-0.2%	CCOC(=O)c1sc(NC(=O)CSc2nc3c(cc2C#N)CCCCCC3)c(C#N)c1C
20µM*	Cc1cccc(NC2=C(C#N)C(=O)NC3(CCCC3)S2)c1

Next section:
VDR inh	compound
-0.3%	Cc1ccc(Cl)cc1NC(=O)Cn1ncc2c(C)n(Cc3ccccc3F)c(C)c2c1=O
-14.3%	N=C1/C(=C/c2ccc(OCc3ccccc3F)cc2)C(=O)N=C2SC(CC(=O)N3CCOCC3)=NN12
3.3%	CSCCC(NC(=O)c1ccccc1Cl)C(=O)NCC1COc2ccccc2O1 (stereo not drawn)
-14.9%	COC(=O)CCCC(=O)NC(C)c1cnn(-c2ccccc2C)c1C (stereo not drawn)
-19.2%	CCOC(=O)CNC(=O)COc1coc(CN2CCN(c3ccccc3F)CC2)cc1=O
10.3%	COC(=O)CSc1nc2c(c(C3CC=CCC3)c1C#N)CCC2 (stereo not drawn)
14.4%	O=[N+]([O-])c1cc(CN2CCCC2)c2cccnc2c1O
-6.3%	CCCCOC(=O)c1ccc(NC(=O)c2cc(=O)c3ccccc3o2)cc1

Reformatted tab-delimited: part of the list above.
Molecule	VDR inh
CCCCOC(=O)c1ccc(NC(=O)c2cc(=O)c3ccccc3o2)cc1	-6.3%
N=C1/C(=C/c2ccc(OCc3ccccc3F)cc2)C(=O)N=C2SC(CC(=O)N3CCOCC3)=NN12	-14.3%
COC(=O)CSc1nc2c(c(C3CC=CCC3)c1C#N)CCC2 (stereo not drawn)	10.3%
CCOC(=O)CNC(=O)COc1coc(CN2CCN(c3ccccc3F)CC2)cc1=O	-19.2%
Cc1ccc(Cl)cc1NC(=O)Cn1ncc2c(C)n(Cc3ccccc3F)c(C)c2c1=O	-0.3%
O=[N+]([O-])c1cc(CN2CCCC2)c2cccnc2c1O	14.4%
CSCCC(NC(=O)c1ccccc1Cl)C(=O)NCC1COc2ccccc2O1 (stereo not drawn)	3.3%
